High-throughput results: PubChem BioAssay, several laboratories
HIV Env fusion – inhibitors of HIV Env-mediated cell fusion; 360,000 tested, 1.1% active; HeLa-JRFL Env/CEM21 cell fusion, luciferase; inhibition, % at 12.3 µM;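 active means mean replicate inhibition score of at least 50 and every replicate individually at or above 50; inconclusive means only one of the two criteria met; inactive means mean below 50 and not all replicates reaching 50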;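 further: 0% = plate neutral controls and 100% = maraviroc near 300 nM; one replicate is shown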
eIF4H inh – inhibitors of RNA binding by human eIF4H | Q15056 | inhibition, % at 35 µM | eIF4H fluorescence polarization binding assay | AID 2012 | 290,000 tested, 0.94% active;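 active means 50% or more with normal probe brightness, or confirmed in later tests; inconclusive means above 50% with abnormal brightness, or retests that disagree; inactive means below 50% or failed in later tests; about a fifth of its hits are not listed in these tables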;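 further: calls also rest on retests at 20 µM and on dose response follow-up; 0% = protein and probe with vehicle and 100% = probe without protein; strong numbers were not always called active; many hits fall short of the cut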
MT1-MMP act inh – blocks activation of human MT1-MMP | GFP/RFP ratio change, % at 20 µM | 360,000 tested, 0.061% active | HT1080 RFP-PRO-GFP cells, GFP/RFP ratio fluorescence, overnight; percent of plate control window, DMSO zero | P50281;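 active means GFP/RFP ratio change of at least 30% with cell ATP level not reduced by more than half and red fluorescence within 50% of control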; further: strong numbers were not always called active
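Assay system: HT1080 RFP-PRO-GFP cells. Benchmarks: DMSO vehicle wells and RFP-L50D-GFP reporter cell wells. Times: overnight cell settling, then overnight compound exposure, 37 °C, 5% CO2. Compound: 20 µM single dose, 1% DMSO. Read-out basis: GFP/RFP fluorescence ratio.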
Rce1 inhib – inhibitors of yeast Ras-converting enzyme; Q03530; yeast membranes, quenched prenylated peptide cleavage fluorescence; calls only; 290,000 tested, 0.27% active;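 active means fall in fluorescence gain of 50% or more versus controls, with final raw signal at or below 3038400; inconclusive means same 50% fall but final raw signal above 3038400; inactive means fall in fluorescence gain under 50%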;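 further: plate controls were neutral control wells for no effect and wells lacking membranes for full effect; tested at 10 µM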
Target sequence (Q03530 whole entry, looked up): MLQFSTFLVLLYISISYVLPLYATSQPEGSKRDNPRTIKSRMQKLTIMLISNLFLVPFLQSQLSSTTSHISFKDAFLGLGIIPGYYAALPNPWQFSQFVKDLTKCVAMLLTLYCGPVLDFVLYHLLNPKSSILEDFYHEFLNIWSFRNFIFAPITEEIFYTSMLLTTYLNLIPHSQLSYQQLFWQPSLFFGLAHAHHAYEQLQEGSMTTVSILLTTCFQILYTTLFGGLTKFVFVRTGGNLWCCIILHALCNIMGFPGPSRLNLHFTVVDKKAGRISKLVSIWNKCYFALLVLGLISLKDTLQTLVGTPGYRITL
Yeast UUG start – alters start codon recognition fidelity in yeast | 350,000 tested, 0.13% active | activity score, % at 18.7 µM | S. cerevisiae UUG-firefly luciferase reporter, luminescence/redox ratio;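 active means replicate mean at a twofold rise or more, about +100% in these data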;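 further: firefly luciferase made from a UUG start codon reports start codon fidelity; reporter light over untreated wells divided by growth signal over untreated wells; some hits fall short of that in this replicate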
PABP FP inh – PABP-poly(A) binding inhibition | 290,000 tested, 1% active | inhibition, % at 35 µM | PABP-poly(A) RNA binding, fluorescence polarization | AID 2014;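 active means 50% or more with normal probe brightness, or confirmed in later tests; inconclusive means above 50% with abnormal brightness, or retests that disagree; inactive means below 50% or failed in later tests; about a fifth of its hits are not listed in these tables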;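 further: calls also rest on retests at 20 µM and on dose response follow-up; controls were probe without protein and protein plus probe with vehicle; some compounds called inactive have numbers as strong as hits; many hits fall short of the cut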
Target sequence (P11940 whole entry, looked up): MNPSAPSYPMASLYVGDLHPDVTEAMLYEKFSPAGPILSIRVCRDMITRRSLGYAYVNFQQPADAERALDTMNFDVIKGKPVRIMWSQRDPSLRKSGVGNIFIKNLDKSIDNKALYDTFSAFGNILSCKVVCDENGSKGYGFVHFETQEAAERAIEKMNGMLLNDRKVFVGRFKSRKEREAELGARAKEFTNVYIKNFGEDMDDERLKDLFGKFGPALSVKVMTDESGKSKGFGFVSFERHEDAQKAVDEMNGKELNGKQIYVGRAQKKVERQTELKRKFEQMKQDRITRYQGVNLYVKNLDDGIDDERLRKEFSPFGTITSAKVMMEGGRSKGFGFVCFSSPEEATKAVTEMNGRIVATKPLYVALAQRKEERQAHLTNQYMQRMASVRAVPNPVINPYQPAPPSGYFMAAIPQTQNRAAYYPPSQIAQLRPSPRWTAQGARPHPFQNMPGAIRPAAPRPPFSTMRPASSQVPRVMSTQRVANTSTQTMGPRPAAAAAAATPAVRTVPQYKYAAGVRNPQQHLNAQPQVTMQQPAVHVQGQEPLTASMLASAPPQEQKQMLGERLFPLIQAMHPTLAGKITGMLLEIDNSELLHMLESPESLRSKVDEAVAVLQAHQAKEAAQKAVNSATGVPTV
CSC inhib – blocks cancer stem cells; cancer stem cell-like cells viability, luminescence; inhibition, % at 7.5 µM; 300,000 tested, 1.1% active;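 active means mean at 75% or more and at least half the replicates too; inconclusive means mean and replicates disagree; tested in HMLE shEcad cells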;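 further: 0% = median of negative and 100% = median of positive control wells; the first replicate is given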
eIF4H inh retest – also measured in eIF4H inh; calls as there; inhibition, %; compound at 20 µM; confirmation average;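 mean of two retest wells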
PABP FP inh retest – second read-out of PABP FP inh, no call of its own (marks repeat the call); inhibition, %; compound at 20 µM; confirmation repeats;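 mean of two retest wells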
MT1-MMP act inh RFP – recorded beside MT1-MMP act inh, whose call it bears; RFP signal change, %; measured here: RFP expression control read;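 0 = vehicle wells; hits needed this value within 50% of zero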
Starred values were filed as active, the others as inactive; i = inactive; ? = inconclusive; · = no result given. Not all compounds are listed, so the mix of outcomes need not match the whole.

SMILES	HIV Env fusion	eIF4H inh	MT1-MMP act inh	MT1-MMP act inh RFP	Rce1 inhib	Yeast UUG start	PABP FP inh	CSC inhib	others
Cc1cc(OCC(=O)NC2CCN(C)CC2)ccc1[N+](=O)[O-]	-2	6	-2	-2	i	-5	-7	·
O=C(C1CCCN1S(=O)(=O)c1cccc2cccnc12)N1CCN(c2ccccc2)CC1 (stereo not given)	-34	2	-4	1	i	4	3	-18
CCOc1ccccc1CNC(=O)CCC(=O)N1Cc2ccccc2Oc2ncccc21	3	-17	2	2	i	-4	5	-5
Clc1ccc(-c2c[nH]c3ccccc23)nn1	-4	2	0	-1	i	-13	-4	-6
COC(=O)/C(=C(/F)Sc1cc(C)c(O)c(C)c1)C(F)(F)F	·	1	7	-3	i	4	-12	14
O=C1CCCN1CC(=O)N1CCCC(N2CCN(c3cccc(Cl)c3)CC2)C1 (stereo not given)	-10	-1	-1	3	i	-11	4	0
O=C(CSc1n[nH]c(-c2cccnc2)n1)Nc1ccc(Cl)cc1	1	10	2	2	i	-16	6	4
CCNc1nc(NC(C)(C)C)nc(Oc2ccc(=O)n(-c3ccccc3)n2)n1	-51	-4	4	5	i	·	5	-2
CCN(CC)CC#CCC1(O)c2ccccc2-c2ccccc21	·	-5	-5	-2	i	-12	-11	-31
CC(C(=O)NCc1cccs1)N1C(=O)c2ccccc2C1=O (stereo not given)	·	-8	-1	1	i	-8	-1	2
Cc1ccc(NC(=O)OC(C)CNC(=O)Oc2cccc(C)c2)cc1 (stereo not given)	14	6	3	0	i	7	-9	-1
O=C(Nc1ccc(Br)cc1F)C1CCCO1 (stereo not given)	-2	-7	0	5	i	-8	-10	-3
COc1ccc(C(=O)NC(NC(=S)Nc2ccc(S(N)(=O)=O)cc2)C(Cl)(Cl)Cl)cc1 (stereo not given)	-23	2	2	1	i	-23	4	-8
CN(C(=O)c1ccc(NC(=O)Cc2cccc(NC(=O)C3CCN(C(=O)C4CC4)CC3)c2)cc1)C1CC1	-6	·	1	7	·	15	·	·
C/C(=N\Nc1cccc2cccnc12)c1ccccn1	-240	2	0	4	i	·	-14	19
CC(C)OC(=O)c1ccc(COC(=O)CNC(=O)c2ccco2)cc1	0	-8	0	3	i	-14	0	7
COc1ccc(NC(=O)CN(C)C(=O)Cn2c(=O)oc3ccccc32)cc1	-12	·	-4	-2	i	·	·	-1
O=C(O)C(c1ccccc1)C(O)C1CCCC1 (stereo not given)	-5	·	-1	5	·	-10	·	·
O=C(O)CCNS(=O)(=O)c1cccc2nsnc12	-8	·	-2	1	·	-12	·	-15
Cc1ccccc1NC(=O)c1cccc2nc3ccccc3nc12	4	-3	-8	-9	i	-11	2	49
CC(C)(C)c1cc(N2CCOCC2)n2ncc(-c3ccccc3)c2n1	10	0	-2	-1	i	5	-4	18
CN(C)CCCN(C(=O)COc1ccccc1)c1nc2c(Cl)cccc2s1	-4	-4	2	-1	i	·	10	-9
COc1ccc(COc2cc(-c3cccc(OC)c3)nc3ccc(NC(=O)C(C)C)cc23)cc1	1	1	13	-8	i	-19	4	54
CC(=O)Nc1ccc(S(=O)(=O)NC2CC(=O)N(c3ccc4c(c3)OCCO4)C2)cc1 (stereo not given)	·	·	1	1	i	·	·	-2
Cc1cccc(C(=O)O/N=C2\CCSc3ccc(C)cc32)c1	6	-2	-2	-2	i	-21	-8	1
Next records follow:
SMILES	HIV Env fusion	eIF4H inh	MT1-MMP act inh	MT1-MMP act inh RFP	Rce1 inhib	Yeast UUG start	PABP FP inh	CSC inhib	others
COCc1cc(=O)n2[nH]c(C)c(-c3ccccc3)c2n1	13	-2	-1	3	?	-4	8	-1
CCOC(=O)C1CCN(C2=NC(=O)/C(=C/c3ccc(O)cc3)S2)CC1	-15	-2	-1	-1	i	-9	-8	-5
Cc1sc(-c2ccncc2)nc1OC(=O)c1cc(Cl)cc(Cl)c1	·	-1	-5	3	i	-13	-1	-2
CN(C)c1nn(C(=O)Nc2cccc(C(F)(F)F)c2)cc1-c1ccccc1	-36	-2	0	-1	i	-1	1	5
O=C(Nc1ccc2oc(-c3cccc4ccccc34)nc2c1)c1ncn[nH]1	·	5	-8	-13	i	-2	-4	44
COc1ccc(N2C(=O)c3ccccc3NC23CCCC3)cc1	-27	4	3	3	i	·	-5	1
CC(=O)c1ccc(NC(=O)/C(=C\c2ccc(F)cc2)NC(=O)c2ccco2)cc1	7	-5	-2	-1	·	-7	-6	-9
Nc1cc(-c2ccc(OC(F)(F)F)cc2)nn1-c1ccc(Cl)c(Cl)c1	-16	-3	2	4	i	-11	7	82*
COc1cc(-c2nc(-c3ccc(Br)o3)no2)cc(OC)c1OC	4	-7	7	-1	i	-23	-5	-5
Cc1ccc(S(=O)(=O)N2[C@@H](c3ccc(Cl)cc3)C(C(=O)O)=CC[C@H]2c2ccc(Cl)cc2)cc1	-14	·	-5	0	·	8	·	17
CCc1nnc(NC(=O)CSc2nccn2-c2cccc(C)c2C)s1	·	-1	3	-27	i	-18	-3	29
COc1cccc(OC)c1NC(=O)NC(=O)c1c(OC)c(Br)cc([N+](=O)[O-])c1OC	-7	-1	4	0	i	2	1	11
CC1(C)CC(=O)C(C(N)=NC(=O)c2ccc([N+](=O)[O-])cc2)=C(O)C1	-5	-8	0	-1	i	·	-15	1
O=C(CSc1nccc(=O)[nH]1)c1ccccc1Br	·	4	-2	5	i	-19	1	-1
O=C(COC(=O)COc1ccccc1)Nc1ccc(Br)cc1F	13	·	1	5	·	-13	·	14
COc1ccc([N+](=O)[O-])cc1N(CC(O)CN(C)C)S(=O)(=O)c1ccc(C)cc1 (stereo not given)	17	2	-4	0	i	·	7	-14
CCOC(=O)C1=CCC(c2cccs2)N(S(=O)(=O)c2ccc(C)cc2)C1 (stereo not given)	4	·	1	-10	·	-7	·	·
Cc1ccc(S(=O)(=O)N2[C@@H](c3ccc(Br)cc3)C(C(=O)O)=CC[C@H]2c2cccs2)cc1	-94	·	-4	3	·	-19	·	·
CCC(C)c1ccccc1NC(=O)COC(=O)c1ccc(C)c(NC(=O)c2ccco2)c1 (stereo not given)	-12	-6	0	0	i	3	-10	2
CCc1nnc(NC(=O)CSc2nnc(CSc3nc(C)cc(C)n3)n2C)s1	-4	-2	-2	5	i	-9	-3	-3
COc1cccc(C2CC(c3ccc(Cl)cc3)n3nc(N)nc3N2)c1 (stereo not given)	-5	-7	8	-1	i	-18	0	·
O=C(CN1CCN(c2cccc(Cl)c2)CC1)Nc1nccs1	-7	-7	-3	0	i	·	9	0
CN1CCN(c2nc(-c3cccs3)nc3ccccc23)CC1	-9	2	-16	-9	i	-14	5	1
C/C(=N\NC(=O)Cc1cccn1C)c1cccs1	5	-12	0	3	i	8	-14	-20
O=C(OCC(=O)N1CCc2ccccc2C1)c1cccc([N+](=O)[O-])c1	-5	4	-2	4	i	·	-12	-6
Remaining list, next part.
SMILES	HIV Env fusion	eIF4H inh	MT1-MMP act inh	MT1-MMP act inh RFP	Rce1 inhib	Yeast UUG start	PABP FP inh	CSC inhib	others
O=C(OCC(=O)N1CCN(c2ccccc2)CC1)c1cc(Br)ccc1Cl	-13	·	6	3	·	-12	·	·
N#Cc1c(N)oc(-c2cccs2)c1-c1cccs1	·	2	-2	5	i	-20	13	-5
CSc1nnc(N2C(=O)C(O)=C(C(=O)c3ccco3)C2c2ccc(F)cc2)s1 (stereo not given)	-16	41	-47	6	i	-27	46	-32
O=C1CC(=O)Nc2cc(S(=O)(=O)N3CCN(c4ccc([N+](=O)[O-])cc4)CC3)ccc2N1	-6	70*	2	0	i	-5	16	-12	eIF4H inh retest=81*;PABP FP inh retest=31
CCc1ccnc(NC(=O)NS(=O)(=O)c2ccc(C)cc2)c1	-88	6	-3	-1	i	0	-5	-12
CC(NC(=O)CN(C)CC(=O)Nc1ccccc1Br)c1ccccc1 (stereo not given)	·	·	1	-1	·	-11	·	-5
CC(C)(C)OC(=O)NCCCC[C@H](NC(=O)c1nc[nH]c1C(=O)NCC(=O)OCc1ccccc1)C(=O)OC(C)(C)C	-10	14	-1	-2	i	-11	-4	4
CC1(C(=O)NS(=O)(=O)c2ccc(C#N)cc2)CCN1C(=O)Cc1ccc(-c2ccccc2)cc1 (stereo not given)	7	·	-4	0	·	0	·	·
CCOC(=O)C1(Cc2ccccc2Cl)CCN(C(=O)c2cc(C)on2)CC1	-15	-2	-1	-1	i	-4	-5	14
O=C(c1ccc(C(F)(F)F)cc1)N1CCC(=O)N(C(COCc2ccc(C(F)(F)F)cc2)Cc2ccccc2)CC1 (stereo not given)	37	0	2	-5	i	-12	4	34
CCOC(=O)c1cc2sccc2n1CC(=O)Nc1ccc(OC)cc1OC	·	-7	-11	-2	i	-8	-2	2
O=C(NNC(=O)c1csc(N2CCOCC2)n1)c1ccc(=O)[nH]c1	12	·	4	2	·	-6	·	-15
COc1ccc(OCCC(=O)OCC(=O)NC2CCCCC2)cc1	2	·	9	0	·	8	·	7
O=C(NC1=NCCS1)C1CCCCC1	-4	0	2	3	i	-2	-1	-4
Cc1cc(NS(=O)(=O)c2ccc(-c3ccccc3)cc2)no1	-34	6	-1	3	i	·	12	-7
Cc1ccc(C(=O)Nc2cccc(O)c2)cc1S(=O)(=O)N1CCCCCC1	-30	2	10	-3	i	-21	-9	11
COC(=O)c1sccc1NC(=O)c1cccnc1	-26	-5	-3	0	i	·	1	-7
CC(NC(=O)CCNS(=O)(=O)c1cccc2nonc12)c1ccccc1 (stereo not given)	-29	-4	2	4	i	-3	8	-16
Cc1cc(C)cc(C(=O)NCC(=O)OCC(=O)Nc2cccnc2Cl)c1	-10	-6	-4	-1	i	·	45	2
O=C(c1cccs1)N1CCN(c2cccc(Cl)c2)CC1	1	8	1	0	i	4	4	1
COCCNC(=O)C(=O)c1cc(C)n(-c2ccc([N+](=O)[O-])cc2)c1C	15	0	3	-2	i	-2	-5	-8
Cc1ccc(S(=O)(=O)N2[C@@H](c3ccccc3F)C(C(=O)O)=CC[C@H]2c2ccc3c(c2)OCO3)cc1	-45	·	-6	2	·	11	·	2
C=CCn1c(-c2ccc([N+](=O)[O-])cc2)n[nH]c1=S	-8	6	-2	-3	i	-1	-3	-10
Cc1c(C(=O)NC2CC(=O)N(c3ccc4c(c3)OCCO4)C2)cccc1[N+](=O)[O-] (stereo not given)	0	·	3	3	i	·	·	-1
O=C(O)[C@@H]1CCCN1C(=O)CCc1c[nH]c2ccccc12	7	2	1	5	i	-3	2	-3
CCOC(=O)CC1C(=O)NCCN1C(=O)c1sc2ccccc2c1Cl (stereo not given)	2	-8	3	2	i	·	-8	2
CC[N+](CC)(CC)CCCCOc1ccc2c(c1)C(=O)c1cc(OCCCC[N+](CC)(CC)CC)ccc1-2	25	10	2	-1	i	3	?	11
O=C(OCc1nnc(-c2ccc(Br)cc2)o1)c1cncc(Br)c1	-2	-4	-3	-1	i	·	0	2

Structures listed so far with a tert-butyl group (3):
SMILES	HIV Env fusion	eIF4H inh	MT1-MMP act inh	MT1-MMP act inh RFP	Rce1 inhib	Yeast UUG start	PABP FP inh	CSC inhib	others
CCNc1nc(NC(C)(C)C)nc(Oc2ccc(=O)n(-c3ccccc3)n2)n1	-51	-4	4	5	i	·	5	-2
CC(C)(C)c1cc(N2CCOCC2)n2ncc(-c3ccccc3)c2n1	10	0	-2	-1	i	5	-4	18
CC(C)(C)OC(=O)NCCCC[C@H](NC(=O)c1nc[nH]c1C(=O)NCC(=O)OCc1ccccc1)C(=O)OC(C)(C)C	-10	14	-1	-2	i	-11	-4	4
